HSV replic up: HSV replication enhancement. HSV replication augmentation in cells, fold increase. hit rate 0.005% among 220,000. maximum fold increase. AID 1956;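 active = peak rise of 1.5-fold or more in the series; inconclusive = self-fluorescent or not available for retest; tested in PC3 cells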;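 note: first round at 10 µM; read as green reporter fluorescence; hits show the peak of a series up to 25 µM; 1 = signal of infected wells without compound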
RGS16-Gao HTS: regulators of human RGS16-Galphao interaction. O15492+P09471. bead-based flow cytometry RGS16-Galphao binding, fluorescence; actives lie on both sides. binding response (% of control), % at 10 µM. hit rate 0.38% among 220,000. AID 1441;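 active = below 25% or above 175%, edge rows of some plates excepted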;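 note: Galphao activated by GDP with aluminum fluoride before binding; 100% = wells without compound and 0% = beads without RGS; some results beyond the cut were filed as inactive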
Target sequence (O15492 whole entry, looked up): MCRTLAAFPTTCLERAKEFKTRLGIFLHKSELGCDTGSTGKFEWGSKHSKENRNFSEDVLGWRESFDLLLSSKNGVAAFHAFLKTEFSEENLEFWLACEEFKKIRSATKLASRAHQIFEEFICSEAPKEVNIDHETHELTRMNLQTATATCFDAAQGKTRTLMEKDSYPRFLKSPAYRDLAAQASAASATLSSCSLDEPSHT
Target sequence (P09471 whole entry, looked up): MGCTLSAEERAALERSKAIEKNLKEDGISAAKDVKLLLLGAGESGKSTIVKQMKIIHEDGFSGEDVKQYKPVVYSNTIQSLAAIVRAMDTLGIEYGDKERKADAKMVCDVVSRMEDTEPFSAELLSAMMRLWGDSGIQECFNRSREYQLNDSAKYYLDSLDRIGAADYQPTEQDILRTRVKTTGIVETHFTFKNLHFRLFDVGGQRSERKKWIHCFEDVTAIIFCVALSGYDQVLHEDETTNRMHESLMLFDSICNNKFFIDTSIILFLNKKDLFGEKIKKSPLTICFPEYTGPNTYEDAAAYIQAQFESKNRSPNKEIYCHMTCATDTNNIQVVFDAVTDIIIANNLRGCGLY
PKD1 inh: blocks activity of human protein kinase D1. inhibition, %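 (about 10 µM by stock and volumes)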. AID 797. PKD1 kinase fluorescence polarization assay. Q15139. hit rate 0.056% among 200,000;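 active = inhibition of 50% or more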;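 note: controls were vehicle for no effect and a reference inhibitor for full effect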
GALR2 agonist: GALR2 (human) receptor agonism; O43603; GALR2-expressing cells, agonist activation read-out; activation, %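 (tested at 5 µM)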; hit rate 0.48% among 140,000;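 active = above mean plus 3 SD of all compounds, about 5% in these data, not always enough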;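 note: 0% = vehicle buffer wells and 100% = reference agonist at full effect; tested in CHO reporter cells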
Target sequence (O43603 whole entry, looked up): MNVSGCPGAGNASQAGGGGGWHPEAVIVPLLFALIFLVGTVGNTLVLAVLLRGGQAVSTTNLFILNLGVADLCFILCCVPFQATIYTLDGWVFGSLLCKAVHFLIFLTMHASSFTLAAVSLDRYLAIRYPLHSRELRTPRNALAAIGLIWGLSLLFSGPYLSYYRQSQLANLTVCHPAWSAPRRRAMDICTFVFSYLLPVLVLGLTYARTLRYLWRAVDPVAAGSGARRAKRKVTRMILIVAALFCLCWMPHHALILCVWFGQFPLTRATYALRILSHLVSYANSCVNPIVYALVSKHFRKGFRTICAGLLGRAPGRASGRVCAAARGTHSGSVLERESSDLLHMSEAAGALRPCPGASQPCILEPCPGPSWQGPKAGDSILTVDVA
INS promoter inh: TRM-6 insulin promoter activity inhibition; TRM-6 cells (human fetal islet line), insulin promoter-eGFP reporter, imaging; reporter expression induced with tamoxifen; inhibition, % at 2 µM; hit rate 0.9% among 130,000;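 active = inhibition above the mean plus 3 SD, with well images judged a real hit on visual review, cut at about 60% in these data, passing the limit was not always enough; inconclusive = inhibition over the cutoff but images rejected on review; inactive = inhibition not above the cutoff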
INS promoter inh cell count: further read-out of INS promoter inh, marked with its call; normalized cell count, %; measured here: cell count, toxicity; reference of the scale not given here;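 cells exposed to compound for 48 h; stained nuclei by imaging scaled within each plate; lower means fewer cells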
HSV replic up primary fold: also measured in HSV replic up; calls as there; fold increase; compound at 10 µM; measured here: primary screen fold increase 10 uM; tested in PC3 cells;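 GFP signal in the first replicate; 1 = infected wells without compound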
Active calls of the source: *; i = inactive; ? = inconclusive; nt = no result given; & = joins results of further samples; [ ] = dose if it differs, or a comment. Some of the compounds tested; count on the stated rates, not on these rows.

SMILES	HSV replic up	HSV replic up primary fold	RGS16-Gao HTS	PKD1 inh	GALR2 agonist	INS promoter inh	INS promoter inh cell count
Cc1nn(Cc2ccccc2)c(C)c1C(=O)NC1CCCc2ccccc21 (centres undefined)	i	1.1	97	-10	-0.9	nt	nt
CN(C)C(=O)Oc1c(Cl)cc(Cl)c2cccnc12	i	0.93	101	0	nt	nt	nt
CCCC(C)C1(CC)C(=O)NC(=Nc2ccccc2OC)NC1=O (centres undefined)	i	1	102	-4	-1.7	-72	75
O=C(C1CCC(=O)N1Cc1ccc(F)cc1)N1CCC2(CC1)OCCO2 (centres undefined)	i	0.89	95	-7	-0.6	nt	nt
CN1CCN(c2nc3ccccn3c(=O)c2C=C2C(=O)N(C)C(=O)N(C)C2=O)CC1	?	nt	106	-4	-0.8	22	94
CC12CN3CC(C)(CN(C1)C31CCSCC1)C2=O	i	1	102	0	-0.8	nt	nt
O=C1NC(=O)N(CCC2=CCCCC2)C(=O)/C1=C\c1cccs1	i	1	88	-9	-0.2	27	120
CN1C(=O)NC(=O)/C(=C/c2ccc([N+](=O)[O-])o2)C1=O	i	1.1	41	nt	nt	nt	nt
N#CCCn1cc(C(=O)Nc2ccc([N+](=O)[O-])cc2)c(-c2ccc3c(c2)OCCO3)n1	i	0.92	106	5	0.0	nt	nt
CCC(=O)Nc1ccc(N2CCN(CC)CC2)c(Cl)c1	nt	nt	117	-7	-0.7	14	109
CN(C)C(=O)Oc1cccc(NC(=O)c2ccccc2C(F)(F)F)c1	i	0.9	103	nt	nt	nt	nt
O=c1[nH]c2ccccc2o1	i	0.68	38	-10	-0.1	-27	81
C[C@@H]1C(=O)O[C@@H]2[C@H](O)C34[C@@H]5OC(=O)C3(O[C@H]3OC(=O)[C@H](O)C34[C@H](C(C)(C)C)[C@H]5O)[C@@]12O (some centres undefined)	i	0.83	124	3	-1.8	14	96
COP(=O)(CC(=O)O)c1ccccc1 (centres undefined)	i	0.63	89	-1	-0.1	41	71
CC12CN3CN(C1)CC(c1ccccc1)(C3)C2=O	i	0.96	97	3	-1.2	16	100
NCCCCCC(=O)OC1N=C(c2ccccc2Cl)c2cc(Br)ccc2NC1=O (centres undefined)	i	0.98	105	-8	nt	-35	131
Cc1cccc(OCCn2cccc2/C=C2/C(=O)NC(=O)N(Cc3ccco3)C2=O)c1	i	1.2	93	nt	nt	nt	nt
CNC(C(=O)c1ccccc1)C(OC(C)C)c1ccc(Cl)cc1 (centres undefined)	i	0.94	102	3	-2.8	-49	113
CCCCC1C(=O)NC(=S)NC1=O	i	0.94	99	0	-1.0	37	128
COc1ccc(/C=C2/C(=O)NC(=O)N(Cc3ccco3)C2=O)cc1	i	1	106	-3	nt	nt	nt
O=C(NCc1cccnc1)NC1CCCCC1	i	0.86	100	4	-2.1	-11	130
CCCc1nnc(NC(=O)CCC(=O)N2CCC3(CC2)OCCO3)s1	i	1.1	100	nt	nt	nt	nt
CNC(=O)Oc1ccc2c(c1)C(=O)c1ccccc1CO2	i	0.91	99	-1	-1.9	-31	193
CCOC(=O)C1=C(C)OC(N)=C(C(=O)OCC)C12C(=O)Nc1ccc(Br)cc12 (centres undefined)	i	0.89	191	2	-1.7	0	129
Cc1ccccc1N1C(=O)CC(=O)NC1=O	i	0.7	119	1	-1.3	22	48
O=C1NC(=O)N(Cc2ccccc2)C(=O)/C1=C/c1cnn(-c2ccccc2)c1	i	0.93	89	2	nt	7	105
Cc1cc(OC(=O)N(C)C)nc(SCc2c(Cl)cccc2Cl)n1	i	1.1	109	nt	nt	nt	nt
Cc1nonc1OCCNc1ccc([N+](=O)[O-])c2cccnc12	i	0.95	106	-8	-0.8	nt	nt
CCCNC(=O)c1c(N)n(Cc2ccc3c(c2)OCO3)c2nc3ccccc3nc12	i	0.92	119	-3	0.5	49	50
CCOCCCn1c(N)c(C(=O)Nc2sc3c(c2C(=O)OC)CCCC3)c2nc3ccccc3nc21	i	0.86	96	-4	0.0	nt	nt
Cc1cc(N2CCCCC2)ccc1C=C1C(=O)N(C)C(=S)N(C)C1=O	i	1.3	111	-7	-1.7	-3	37
Cc1ccc(CN2CCN(Cc3ccccc3F)CC2)cc1	i	1	110	-4	nt	nt	nt
Cc1ncc(CN2CCCC(C(=O)c3ccc(C(C)(C)C)cc3)C2)s1 (centres undefined)	i	0.91	123	2	nt	-15	117
C=C1C(=O)O[C@@H]2C[C@@H](C)[C@@H]3C=CC(=O)[C@@]3(C)[C@@H](O)[C@H]12	i	0.4	99	nt	nt	nt	nt
CN(C)C(=O)Oc1noc2cc(Cl)ccc12	i	1.1	96	nt	nt	nt	nt
CCN1C(=O)C(=C/C=C/c2ccco2)C(=O)N(CC)C1=S	?	nt	92	-4	-0.6	29	135
O=C1NC(=O)C(CCc2ccncc2)(C2CCCCC2)C(=O)N1	nt	nt	102	-12	-0.9	42	96
CN(N)N=Nc1nc2c([nH]1)c(=O)n(C)c(=O)n2C	i	0.97	101	nt	nt	nt	nt
C[N+]1(C)C2CCC1CC(OC(=O)c1ccccc1)C2 (centres undefined)	i	0.92	88	nt	nt	nt	nt
CC(C)N(Cc1ccco1)/N=C/c1c(O)n(Cc2ccccc2)c(=O)[nH]c1=O	i	1	103	nt	nt	nt	nt

Only GALR2 agonist, RGS16-Gao HTS and HSV replic up, for 3 of the compounds above:
SMILES	GALR2 agonist	RGS16-Gao HTS	HSV replic up
CNC(=O)Oc1ccc2c(c1)C(=O)c1ccccc1CO2	-1.9	99	i
CCOC(=O)C1=C(C)OC(N)=C(C(=O)OCC)C12C(=O)Nc1ccc(Br)cc12 (centres undefined)	-1.7	191	i
Cc1ccccc1N1C(=O)CC(=O)NC1=O	-1.3	119	i

The results go on.
SMILES	HSV replic up	HSV replic up primary fold	RGS16-Gao HTS	PKD1 inh	GALR2 agonist	INS promoter inh	INS promoter inh cell count
CCOC(=O)C1=C(N)Oc2cc(C)oc(=O)c2C12C(=O)N1c3c(cccc32)C(C)CC1(C)C (centres undefined)	i	1.1	105	-4	1.9	45	101
Cc1ccccc1N1C(=O)NC(=O)/C(=C/c2ccc(N3CCOCC3)o2)C1=O	?	nt	107	nt	nt	nt	nt
CC12CN3CC(C)(CN(C1)C3c1cccs1)C2=O (centres undefined)	i	1.1	99	-2	nt	nt	nt
O=C(NCCN1CCOCC1)c1ccc(Cl)nc1Cl	i	1	97	0	nt	20	34
CCCCn1c(O)c(C(CC)=NCc2ccco2)c(=O)[nH]c1=O	i	1	102	-1	-1.8	-3	229
COC(=O)[C@@H]1[C@@H](C(=O)OC)C2(c3ccccc3-c3ccccc32)N(c2ccc(Cl)cc2)N1C#N	i	0.4	100	4	-1.5	38	56
CCC(=O)c1cc(F)c(N2CCN(CC)CC2)cc1C	i	0.9	97	-8	-1.7	22	113
c1ccc2c(CN3CCCCCC3)c[nH]c2c1	i	1	137	6	nt	-8	91
O=C(NC(Cc1ccccc1)C(=O)N1CCC2(CC1)OCCO2)C1CCCCC1 (centres undefined)	i	0.96	99	4	-2.4	-86	47
CCN1/C(=C\C=C\C2=[N+](CC)c3ccccc3C2(C)C)C(C)(C)c2ccccc21	nt	nt	99	5	2.5	-257	21
CCCC(=O)NC(Oc1ccc(OC)cc1)C(Cl)(Cl)Cl (centres undefined)	nt	nt	100	5	nt	nt	nt
Cn1c[n+](C)cc1C(O)c1ccccc1 (centres undefined)	i	1&0.82	109&100	1&-2	-0.3&-0.9	16	119
COC(=O)CC1=C(C(=O)OC)C2(C(=O)N(C)c3ccccc32)C(C#N)=C(N)O1 (centres undefined)	i	0.81	104	-8	-1.6	39	96
CCN1CCN(C(=O)Cc2c(C)n(C(=O)c3ccc(Cl)cc3)c3ccc(OC)cc23)CC1	i	0.8	108	-4	nt	-127	76
C[C@@H]1O[C@@H](O[C@H]2C[C@@H](O)[C@]3(CO)[C@H]4[C@H](O)C[C@]5(C)[C@@H](C6=CC(=O)OC6)CC[C@]5(O)[C@@H]4CC[C@]3(O)C2)[C@H](O)[C@H](O)[C@H]1O	i	0.53	105	-15	-0.8	-355	0
BrCC1C[n+]2c(SCc3ccccc3)nc3sc4c(c3c2O1)CCCC4 (centres undefined)	i	1	221*[activator]	nt	nt	nt	nt
O=P(Nc1cccc(F)c1)(Oc1ccccc1F)Oc1ccccc1F	i	0.92	102	nt	nt	nt	nt
CCOC(=O)c1cc(C)sc1/N=C/C1C(=O)NC(=S)NC1=O	i	1.1	100	-5	nt	nt	nt
COC(=O)C(C)Oc1cc(C)cc2oc(=O)c3c(c12)CCCC3 (centres undefined)	i	0.9	97	-20	-3.4	34	54
O=P(NS(=O)(=O)c1ccc(Br)cc1)(Oc1ccccc1)Oc1ccccc1	i	0.78	99	9	-1.6	57	38

Next section; it opens with the 2 that closed the last part.
SMILES	HSV replic up	HSV replic up primary fold	RGS16-Gao HTS	PKD1 inh	GALR2 agonist	INS promoter inh	INS promoter inh cell count
COC(=O)C(C)Oc1cc(C)cc2oc(=O)c3c(c12)CCCC3 (centres undefined)	i	0.9	97	-20	-3.4	34	54
O=P(NS(=O)(=O)c1ccc(Br)cc1)(Oc1ccccc1)Oc1ccccc1	i	0.78	99	9	-1.6	57	38
O=C1CC(N2CC=C(c3ccccc3)CC2)C(=O)N1c1ccc(F)cc1 (centres undefined)	nt	nt	101	-3	-1.9	14	95
CCN1CCN(S(=O)(=O)c2ccc(Cl)nc2)CC1	i	0.92	122	1	-3.2	29	89
O=c1[nH]c(=O)n(Cc2ccccc2Cl)c(O)c1C=Nc1ccc(F)cc1	i	1.1	106	-3	nt	36	118
COc1ccc(OC)c([C@@H](O)[C@H](C)NC(C)(C)C)c1	i	0.72	99	-7	-0.5	-9	82
CN1C(=O)C(Cc2c[nH]c3ccccc23)C(=O)N(C)C1=O	nt	nt	100	-8	-2.5	35	132
ON1C2CCCCC2N(O)C1c1ccccc1 (centres undefined)	i	1	96	-7	-3.9	nt	nt
CCOC(=O)c1ccc(N=C(c2ccccc2)c2c(O)n(C)c(=O)n(C)c2=O)cc1	i	1.2	102	nt	nt	nt	nt
COc1cccc(C(=O)C2CCCN(Cc3ccc4nsnc4c3)C2)c1 (centres undefined)	i	1	89	7	nt	nt	nt
COP(=O)(C#Cc1ccccc1)C(O)c1ccc(Br)cc1 (centres undefined)	i	0.94	103	nt	nt	nt	nt
CN1C(=O)c2ccccc2NC(=O)[C@]12O[C@@H]2c1ccccc1	i	0.73	105	6	nt	nt	nt
O=c1[nH]c(=S)[nH]c(O)c1/C=N/N1CCOCC1	i	1	97	nt	nt	nt	nt
CCc1ccc(-c2nn(Cc3ccccc3)cc2C=O)cc1	i	0.93	118	0	nt	38	87
CN1C(=O)C(=Cc2ccccc2OCc2ccc(C(=O)O)cc2)C(=O)N(C)C1=O	i	1	100	-1	nt	5	123
CC1CN(O)C2CCc3nonc3C12O (centres undefined)	i	1.1	97	-9	-3.6	9	79
CC(=O)OC1C2CCCC1C(N1CCCC1)CC2 (centres undefined)	i	0.68&0.97	79&89	-4&-7	-1.7&-0.3	3	128
CC(C)c1ccc(OCC(=O)N2CCN(C)CC2)c(Br)c1	i	1.1	109	5	0.9	38	92
COc1ccc(OCC(=O)N2CCN(Cc3c[nH]c4ccccc34)CC2)cc1	i	0.97	101	-8	-0.6	-36	142
COC(=O)C(O)(c1c(C)[nH]c2ccccc12)C(F)(F)F (centres undefined)	i	0.86	92	-8	-1.5	29	181
O=C(N/N=C/c1c(O)n(Cc2ccc(F)cc2)c(=O)[nH]c1=O)c1ccccc1	i	1.3	111	nt	nt	nt	nt
COc1ccc(CCn2c(O)c(C=NC3CC3)c(=O)[nH]c2=O)cc1OC	i	0.9	100	8	-1.7	46	166
Cc1nc2ccccn2c1P(=S)(N1CCCCC1)N1CCCCC1	nt	nt	108	-7	-1.4	-45	108
CN1CCN(C(=O)OC2c3nccnc3C(=O)N2c2ccc(Cl)cn2)CC1 (centres undefined)	nt	nt	106	2	-0.3	0	87
CCOc1ccc(-n2c(O)c(C=NCCN(CC)CC)c(=O)[nH]c2=O)cc1	i	0.92	104	3	-1.4	-23	127
OC12Oc3ccccc3C=C1N1CCC2CC1 (centres undefined)	i	0.93	104	-2	-2.5	nt	nt
O=C(COc1ccccc1)N1CCN(Cc2c[nH]c3ccccc23)CC1	i	0.98	109	-10	-0.9	33	122
Cn1c(=O)cc(OCCCC(=O)N2CCC3(CC2)OCCO3)c2ccccc21	i	0.83	111	-6	-1.9	-8	77
O=c1cccc2n1CC1CC2CN(c2nc(N3CCCCC3)nc(N3CCCCC3)n2)C1 (centres undefined)	i	0.86	96	-3	nt	-46	118
